Assay outcomes from PubChem.
Beta apoptosis = beta cell apoptosis inhibition; protection from apoptosis, % (concentration not given with the values); INS-1E cytokine-induced death, ATP luminescence, 48 h; percent of positive-control rescue, neutral wells zero; AID 435005; hit rate 0.8% among 300,000;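 active = all replicates at 75% or more, or half of them and the mean; inconclusive = half reach 75% but not the mean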;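 note: 0% = cytokine-treated negative control wells and 100% = positive control rescue; higher means more ATP so stronger rescue from cytokine killing; wells of about 40 µL received 100 nL stock; the first replicate is given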
T cruzi inh = blocks replication of Trypanosoma cruzi; T. cruzi beta-gal in NIH3T3, luminescence, 90 h; inhibition, % (concentration not given with the values); hit rate 1.4% among 300,000;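 active = mean inhibition across valid replicates above about 55%, limit read from the data; inconclusive = mean below that limit but half or more replicates reach it; inactive = mean below it, under half of replicates reach it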;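 note: signal also drops with host cell toxicity which is not excluded here; 0% = plate median of DMSO wells and 100% = zero luminescence signal; higher percent means less beta-gal luminescence so fewer parasites; stock transfer was 50 nL into about 50 µL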
Ecoli rRNA inh = selective bacterial rRNA inhibition in E. coli. GFP signal change (wild-type ribosome), % (concentration not given with the values). AID 720706. E. coli WT GFP vs humanized-ribosome RFP mutants, fluorescence, 24 h; hits give low values; DMSO median 0, no signal -100. hit rate 1.6% among 350,000;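 active = significant combined selectivity score with lowered wild-type GFP, culture density cut under 30%, mutant RFP and density less affected; inactive = any of these conditions unmet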; note: one replicate is shown; some compounds called inactive have numbers as strong as hits
Vif A3G = inhibitors of Vif binding to APOBEC3G peptide, primary screen, biochemical, TR-FRET, GST-Vif 1-94, biotin-A3G peptide, dose response retest (AID 1117319); TR-FRET GST-Vif / biotin-A3G peptide binding; higher % means a stronger effect; test concentration not given here; strong numbers were not always called active; inhibition, %, or IC50 in µM where a hit was titrated; hit rate 0.57% among 260,000;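 active = above the screen mean plus three standard deviations and confirmed in dose response; inconclusive = results disagree or hit not tested in dose response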;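 note: Vif residues 1-94 fused to GST binding biotinylated APOBEC3G peptide 110-148; 0% = full assay without inhibitor and 100% = GST in place of GST-Vif; retest series ran down from 100 µM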
Calb FLC = affects C. albicans growth with fluconazole | growth inhibition, % (concentration not given with the values) | C. albicans CaCi-2 (fluconazole-resistant clinical isolate) + fluconazole, Alamar Blue growth, 48 h | AID 1979 | hit rate 0.57% among 300,000;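 active = most replicates above 75%; inconclusive = exactly half above 75%; inactive = most below 75%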;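 note: all wells also contain fluconazole at 8 µg/ml as a sub-toxic cotreatment; 0% = median of DMSO wells and 100% = median of geldanamycin control wells; wells of about 8 µL received 7.5 nL stock; the first replicate is given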
RanGTP-Imp inh = inhibitors of RanGTP-importin-beta interaction, primary screen, biochemical, FRET, CFP-Ran, YFP-importin-beta, homogeneous | hit rate 1.1% among 300,000 | inhibition, % (concentration not given with the values) | cell-free CFP-Ran/YFP-importin-beta FRET ratio;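 active = most replicates above 15%; inconclusive = exactly half above 15%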;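 note: 0% = DMSO wells and 100% = Ran loaded with GDP instead of GTP; wells of about 40 µL received 100 nL stock; the first replicate is given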
MLL AF4-AF9 inh = MLL-AF4/AF9 protein interaction inhibition. P42568. AlphaScreen, biotin-AF4 peptide binding to FLAG-AF9. inhibition, % at 10 µM. hit rate 0.47% among 350,000. AID 651704;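 active = every replicate reaching a set inhibition limit, whatever the replicate mean, cut at about 25% in these data; inconclusive = mean inhibition reaches that limit but some replicates miss it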;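 note: 0% = plate neutral control median and 100% = total signal loss; the record names both 10 and 1 µM as test concentration; the first replicate is given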
Target sequence (P42568 whole entry, looked up): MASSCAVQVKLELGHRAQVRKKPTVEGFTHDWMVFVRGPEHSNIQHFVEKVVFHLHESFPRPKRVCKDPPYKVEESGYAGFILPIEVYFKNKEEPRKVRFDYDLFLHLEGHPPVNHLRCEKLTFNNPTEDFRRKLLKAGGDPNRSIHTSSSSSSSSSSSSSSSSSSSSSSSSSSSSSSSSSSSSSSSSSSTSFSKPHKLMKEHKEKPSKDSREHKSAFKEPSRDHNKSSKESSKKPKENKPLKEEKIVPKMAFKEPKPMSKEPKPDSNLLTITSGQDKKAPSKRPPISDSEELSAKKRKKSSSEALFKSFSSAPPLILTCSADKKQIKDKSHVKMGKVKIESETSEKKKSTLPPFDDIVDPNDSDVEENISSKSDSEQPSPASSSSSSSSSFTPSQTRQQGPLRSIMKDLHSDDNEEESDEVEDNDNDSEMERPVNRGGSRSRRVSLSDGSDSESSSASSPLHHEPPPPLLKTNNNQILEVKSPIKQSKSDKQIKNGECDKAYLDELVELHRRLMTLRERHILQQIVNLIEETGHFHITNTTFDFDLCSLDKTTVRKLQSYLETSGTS
A1 inh = inhibitors of the anti-apoptotic protein A1, read as caspase activation; MEF A1-2A-BIM cells, Caspase-Glo 3/7 luminescence, 3 h; percent of clofoctol response, vehicle zero; caspase activation, % (no concentration beside the values); hit rate 0.066% among 330,000; AID 2462;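 active = over half of replicate activation scores above 10%, or exactly half above 10 with the replicate mean above 10; inconclusive = replicate mean below 10 yet half the replicates above 10; inactive = over half of replicates below 10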;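 note: wells of about 30 µL received 50 nL stock; many hits fall short of the cut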
Ecoli rRNA inh OD600 = further read-out of Ecoli rRNA inh, marked with its call; OD600 change, %; measured here: OD600 growth;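 optical density of the mix in the first replicate; 0 = DMSO median and -100 = no signal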
Ecoli rRNA inh RFP = also measured in Ecoli rRNA inh; calls as there; RFP signal change, %; measured here: RFP humanized mutant strains;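 first replicate; 0 = DMSO median and -100 = no signal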
Starred values were filed as active, the others as inactive; ? = inconclusive; nt = no result given; & = joins results of further samples.

SMILES	Beta apoptosis	T cruzi inh	Ecoli rRNA inh	Ecoli rRNA inh OD600	Ecoli rRNA inh RFP	Vif A3G	Calb FLC	RanGTP-Imp inh	MLL AF4-AF9 inh	A1 inh
Cc1cc(C)nc(N2CCC(C(=O)NCc3ccco3)CC2)n1	0	-17	nt	nt	nt	-1%	?	-0.1	nt	-0.7
O=C1C(=O)N(Cc2ccncc2)C(c2cccc(O)c2)/C1=C(\O)c1ccc2c(c1)OCCO2 (stereo unspecified)	-1	7	0	0	-0.4	-9%	4	-3.5	1.2	0.4
CC(C(=O)OCC(=O)c1cccc([N+](=O)[O-])c1)N1C(=O)C2C3C=CC(C3)C2C1=O (stereo unspecified)	-8	-4	4	4	-2.8	nt	3	-0.4	-1.1	0.8
COc1ccc(CCNC2CC(=O)N(C3CCCCC3)C2=O)cc1OC (stereo unspecified)	0	1	-2	0	-0.3	26%	-1	1.0	-2.1	-0.7
Cc1[nH]c2ccccc2c1CN1CCC(CO)(Cc2ccccc2)CC1	-2	31	nt	nt	nt	2%	-25	-6.0	nt	-0.4
COc1ccc(-c2ccccc2NC(=O)C2CCCN(Cc3ccco3)C2)cc1 (stereo unspecified)	-4	7	-5	-8	-0.9	1%	18	1.4	3.1	-0.4
C=CCn1c(Cc2cccc3ccccc23)n[nH]c1=S	-2	-21	nt	nt	nt	-13%	2	-1.9	nt	1.1
CCN1CCN(C(=O)c2cc(COc3c(C)cccc3C)on2)CC1	0	9	0	-2	-1.2	nt	14	4.7	-14	0.3
CC1CCC(NC(=O)c2cc(S(=O)(=O)N3CCCCC3)ccc2N2CCOCC2)CC1 (stereo unspecified)	1	nt	-7	-11	2.7	nt	nt	nt	2.5	1.0
C#CCOCCOCCOCCNc1nc(N2CCN(C(=O)[C@H](CCCCN)n3cc([C@@H](N)CC(C)C)nn3)CC2)nc(N2CCN(C(=O)[C@H](Cc3ccc(O)cc3)n3cc([C@@H](N)CC(C)C)nn3)CC2)n1	-4	-15	nt	nt	nt	-4%	1	0.2	nt	0.5
Cc1oc2nc(SCC(=O)N3CCCCC3)nc(N)c2c1C	-3	-5	nt	nt	nt	5%	-2	-2.0	nt	-0.3
CC1CC(C)CN(S(=O)(=O)c2ccc(C(=O)N3CC(C)OC(C)C3)cc2)C1 (stereo unspecified)	4	9	10	8	-0.8	nt	6	-2.8	-1.5	-0.3
Cc1nn(Cc2ccccc2Cl)c(Cl)c1C(=O)NCCc1ccccc1	-1	8	3	13	2.8	nt	7	0.5	-0.3	0.1
CCOCCCNC(=O)CN1C(=O)/C(=C/c2ccccc2C)Sc2ccccc21	0	4	-8	-14	2.0	-3%	-17	-1.8	-0.5	1.6
Cn1ncc(C(N)=O)c1NC(=S)NC(=O)c1ccc(Br)o1	3	-6	7	9	1.4	nt	1	5.0	-3.4	-0.6
CC(=O)Nc1ccc(S(=O)(=O)N2CN(c3ccc(C)cc3)c3nc4ccccc4nc32)cc1	-2	3	3	0	1.3	nt	0	1.1	5.1	0.4
COc1ccc(N2CC(C(=O)Nc3nc4ccc(F)cc4s3)CC2=O)c(OC)c1 (stereo unspecified)	-7	-2	-30*	-24*	-0.2*	nt	3	-0.2	1.2	0.7
NC(=O)c1ccccc1N/C=C/C(=O)c1ccc(Cl)cc1Cl	nt	5	nt	nt	nt	0%	11	44*	nt	nt
Cc1ccc2nc(-c3cccc(NS(C)(=O)=O)c3)cc(-c3ccccc3)c2c1	-3	19	-8	-10	-8.1	nt	-1	2.1	5.4	0.5
COc1ccc(CCCC(=O)O)c(C)c1	-8	-11	nt	nt	nt	25%	23	-0.8	-3.8	-0.6
Cc1ccc(NC(=O)C2CCCN(S(=O)(=O)c3cccc4nonc34)C2)cc1 (stereo unspecified)	-5	7	-2	1	1.4	nt	-7	3.5	-2.2	2.0
Oc1cc(NCc2ccc(F)cc2)cc2cccnc12	4	nt	3	4	4.0	nt	nt	nt	1.8	-0.4
CC(=O)Cc1nsc(NC(=O)c2ccc(-c3cccc(C(F)(F)F)c3)o2)n1	-1	-2	nt	nt	nt	5%	?	22*	nt	2.1
CCOC(=O)C1=C(CN2CC(C)CC(C)C2)NC(=O)NC1c1ccc2c(c1)OCO2 (stereo unspecified)	-4	16	-25	-21	5.1	0%	28	5.3	-8.9	-0.5
Cc1cc(C)c2c(-n3cccc3)c(C(=O)O)sc2n1	6	5	nt	nt	nt	-3%	6	nt	nt	0.7
Cc1ccc2c(c1)NC(=O)C(CC(=O)NCCCN1CCCC1)O2 (stereo unspecified)	-10	-3	6	12	0.9	4%	3	3.7	2.8	-0.2
COc1ccccc1NC(=O)c1ccc(NC(=O)CN2CCCCC2)cc1	3	nt	1	4	-0.6	4%	nt	nt	1.4	-1.0
CCOc1ccc(S(=O)(=O)n2cnc3cc(C)c(C)cc32)cc1	10	-22	15	5	-0.9	-5%	3	-1.2	-33	-0.5
COCCCn1c2nc3ccccc3nc2c2c(=O)n(CC3CCCO3)cnc21 (stereo unspecified)	-1	8	nt	nt	nt	-6%	-6	?	nt	-0.8
Cc1ccccc1C1(CCN2CCCCC2)CCOC(C)(C)C1 (stereo unspecified)	1	10	nt	nt	nt	-1%	-10	-1.1	nt	0.3
CCOc1cc(N2CCOCC2)c(OCC)cc1NC(=O)c1ccco1	0	3	-5	-8	-0.9	?	45	-4.1	2.7	0.2
CCN(CC)c1ccc(NC(=O)C2CCCC2)cc1	19	15	11	6	3.0	nt	-6	0.1	8.7	1.0
C[C@H](NC(=O)c1ccco1)C(=O)NCCc1ccc(S(N)(=O)=O)cc1	-4	2	12	0	-2.8	4%	-1	-4.7	-0.7	1.0
CS(=O)(=O)c1nc(S(=O)(=O)c2ccc(Cl)cc2)c(N2CCCCCC2)s1	-8	-6	1	9	-1.2	-11%	8	-0.1	-2.2	1.1
CC(C)C(=O)Nc1sc2c(c1C#N)CCCCC2	2	16	nt	nt	nt	23%	-15	-1.7	nt	1.1
CCOc1ccc2oc(=O)cc(C)c2c1	-9	-6	nt	nt	nt	1%	23	8.5	nt	-1.0
O=C(NC1CCCCCC1)c1ccc(S(=O)(=O)NCc2ccco2)cc1	3	-11	nt	nt	nt	8%	-4	-1.1	nt	0.3
Cc1cc(C(F)(F)F)c2c(C)nn(CCc3nn[nH]n3)c2n1	1	9	nt	nt	nt	5%	nt	1.6	nt	2.9
O=C(Nc1cccc(F)c1)C1CCN(S(=O)(=O)c2cccc3nonc23)CC1	1	23	-4	-9	0.5	nt	-4	?	1.2	0.2
C=CCn1c(-c2cc(OC)cc(OC)c2)n[nH]c1=S	2	15	nt	nt	nt	2%	1	-3.8	nt	0.0
CC(CC(C)C(=O)N1CCOCCN(C(=O)C(C)CC(C)C(=O)O)CCOCC1)C(=O)O (stereo unspecified)	-9	-12	nt	nt	nt	-7%	-1	0.0	nt	1.0
CCOC(=O)C(C)OC(=O)C1=C(C)NC(=O)NC1c1ccc2c(c1)OCO2 (stereo unspecified)	-4	-7	5	4	-0.2	nt	12	-0.4	-1.5	-0.2
CC(C)(C)c1cc(C(=O)NCc2ccco2)ccn1	-6	-5	nt	nt	nt	2%	16	2.6	nt	-0.2
Cc1ccc(-c2nn(-c3ccccc3)cc2/C=C2\SC(=S)N(CCCCCC(=O)O)C2=O)o1	-4	11	6	7	5.7	nt	58	-101	5.0	-0.3
COc1cc(OC)c(C(=O)NC23CC4CC(CC(C4)C2)C3)cc1OC	-1	-13	-16	-31	-4.7	nt	0	3.4	1.2	-1.0
CS(=O)(=O)N(CCC(=O)O)Cc1ccccc1	3	-14	nt	nt	nt	-2%	1	0.1	nt	0.0
CCCOc1ccc(Br)cc1/C=N/O	-4	-9	nt	nt	nt	-4%	-2	-0.8	nt	-0.2
CC(C)CCC1(C)NC(=O)N(CC(=O)c2ccc[nH]2)C1=O (stereo unspecified)	0	13	5	-1	0.1	6%	5	0.0	12	-0.3
CCn1c(/C=C2\C(=O)N(C)c3ccccc32)nc2ccccc2c1=O	2	-1	nt	nt	nt	-2%	-16	-0.8	nt	0.2
O=C1CC(N2CCC(O)(c3ccc(Cl)cc3)CC2)C(=O)N1Cc1ccc(N2CCCC2=O)cc1 (stereo unspecified)	6	0	nt	nt	nt	-6%	-16	2.3	nt	1.2
Cc1sc(-n2cccc2)c(C(=O)O)c1C	-9	-3	nt	nt	nt	27%	-5	0.8	nt	-0.6
O=C(CCn1nnc2ccccc21)Nc1nnc(-c2ccccc2F)s1	-1	-11	nt	nt	nt	-9%	3	-2.2	nt	0.0
CC(C)(C)C(=O)Nc1cc(C(F)(F)F)ccc1-n1ccnc1	-3	-12	13	16	3.1	-13%	11	-1.8	-0.4	0.1
O=C(CC1C(=O)NCCN1Cc1c(F)cccc1Cl)NCCc1ccccn1 (stereo unspecified)	-1	0	9	5	-2.6	0%	-3	-1.7	-1.9	0.1
CCCC(=O)NNC(=O)c1ccoc1C	2	8	-15	-20	-7.2	nt	6	-2.8	-0.9	0.3
CCOC(=O)N1CCC(NC(=O)CN2C(=O)CSc3ncccc32)CC1	nt	-4	13	12	1.4	2%	-2	-1.0	0.7	-0.2
CC(NC(=O)c1cccnc1)c1ccc2c(c1)OCO2 (stereo unspecified)	-2	3	12	9	-12	5%	-8	3.5	-7.2	0.0
O=S(=O)(c1ccc2ccccc2c1)N(CC1CO1)c1ccccc1 (stereo unspecified)	5	8	-2	-9	2.0	nt	29	?	-3.8	0.2
CCCc1cc(C(N)=O)c(NC(=O)c2ccco2)s1	5	6	nt	nt	nt	-10%	6	5.3	nt	0.3
COCCn1c(=NC(C)=O)sc2cc([N+](=O)[O-])ccc21	-10	-2	nt	nt	nt	nt	-7	1.1	nt	0.0
Other entries follow.
SMILES	Beta apoptosis	T cruzi inh	Ecoli rRNA inh	Ecoli rRNA inh OD600	Ecoli rRNA inh RFP	Vif A3G	Calb FLC	RanGTP-Imp inh	MLL AF4-AF9 inh	A1 inh
CCn1cc(CN2CCCC(C(=O)Nc3ccc(-c4nc5ccccc5[nH]4)cc3)C2)c(C)n1 (stereo unspecified)	10	20	-2	-5	-3.7	-5%	-4	-3.6	6.4	1.3
C[C@H]1CN([C@@H](C)CO)C(=O)Cc2cc(NC(=O)Cn3cnnn3)ccc2O[C@H]1CN(C)Cc1ccncc1	4	nt	-1&19	1&9	-2.7&4.3	-5%	nt	nt	-1.7&0.7	-0.1
O=C(COc1ccccc1)NCc1ccc2c(c1)OCO2	-6	-5	nt	nt	nt	6%	-15	3.6	nt	-0.4
Cc1ccc2c(c1)C1CN(C)CCC1N2C(=O)Nc1ccc(Cl)cc1 (stereo unspecified)	nt	25	nt	nt	nt	10%&-3%	-11	-4.3	nt	nt
COc1ccc(S(=O)(=O)Cc2ccc(C(=O)NC3CC3)o2)cc1	-2	0	8	10	0.4	-1%	-5	?	0.4	-0.5

An excerpt; count on the stated rates, not on these rows.
